Screens deposited in PubChem by Fisher Drug Discovery Resource Center.
NPYLR7 agonist = activates Aedes aegypti NPYLR7 receptor. HEK293T NPYLR7/Galpha15, GCaMP6s calcium fluorescence. activation, % at 10 µM. 270,000 compounds, 0.15% hits. AID 1259423; in the data active = activation above about 40%;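 note: 0% = vehicle and 100% = reference agonist at the receptor; some compounds past the cut are filed as inactive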
NPYLR7 agonist max-min = also measured in NPYLR7 agonist; calls as there; activation, %; measured here: Max-Min RFU normalised activation; some inactives read as strong as hits;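 span of the calcium signal over five minutes; 0% = vehicle and 100% = native peptide agonist; compound fluorescence can raise it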
An asterisk follows results filed as active; & = joins results of further samples. These rows are one share of the data, so the mix of outcomes need not match the whole.

SMILES | NPYLR7 agonist | NPYLR7 agonist max-min
CCOCCOc1nc(-c2cccc(F)c2)n(-c2ccc(N)cc2)n1 | -15 | -19
O=C(Nc1ccc(Cn2cnc(C(=O)Nc3ccccc3F)c2)cc1)c1ccc(Cl)cc1 | -9 | -9
CC(C)C(NC(=O)C1=COCC1)c1ccc(Cl)cc1 (stereo not drawn) | 1&-1 | 0&2
CCCCOc1ccc(C(=O)CCN2CCCCC2)cc1 | -2&0&0 | -6&-7&-4
CCCCC1=NN2C(=N)/C(=C/c3ccc(OS(C)(=O)=O)c(OCC)c3)C(=O)N=C2S1 | 0 | -1
Cc1ccccc1Oc1ncccc1CNC(=O)C1Cc2ccccc2O1 (stereo not drawn) | 1 | 0
Cc1ccsc1CN(Cc1ccc(F)cc1)C(=O)CN(C(=O)c1ccc(-c2ccccc2)cc1)C1CCCCC1 | -5 | -6
Cc1cccc(C(=O)NC(C)C(=O)Nc2cccc(C)n2)c1 (stereo not drawn) | 1 | 1
CCc1ccc(NC(=O)Cn2nc(SC)c(-c3nc(-c4ccc(OC)c(OC)c4)no3)c2N)cc1 | -6 | -14
Fc1ccc(-c2nnn(Cc3nc(Cc4ccccc4)n[nH]3)n2)cc1 | 21 | 9

Three entries from above, with two lines to a compound.
Second line of a record: NPYLR7 agonist	NPYLR7 agonist max-min
CCCCOc1ccc(C(=O)CCN2CCCCC2)cc1
  -2&0&0	-6&-7&-4
CCCCC1=NN2C(=N)/C(=C/c3ccc(OS(C)(=O)=O)c(OCC)c3)C(=O)N=C2S1
  0	-1
Cc1ccccc1Oc1ncccc1CNC(=O)C1Cc2ccccc2O1 (stereo not drawn)
  1	0

(listing goes on)
SMILES | NPYLR7 agonist | NPYLR7 agonist max-min
CCc1c(C#N)c(N)nc(SCc2ccccc2)c1C#N | 3 | 4
CS(=O)(=O)CCSc1cccc(F)c1C#N | 5 | 4
O=C1c2cccc3cccc(c23)N1CN1CCCC1c1cccnc1 (stereo not drawn) | 3 | 4
OC1(c2ccc(Cl)cc2)CCN(Cc2nc(-c3cnccn3)no2)CC1 | 6 | -3
O=C(NCc1scnc1-c1ccccc1)C1CCC(=O)N(CCc2ccccn2)C1 (stereo not drawn) | -6 | -7
O=C(Nc1cccc(CN2CCOCC2)c1)c1ccc(Br)o1 | 3 | 4
CCc1ccccc1OCCCN(C)C(=O)C1CCS(=O)(=O)CC1 | 16 | 10
CC1CN(c2ncnc3c2cnn3CCNC(=O)COc2ccccc2)CC(C)O1 (stereo not drawn) | 0 | -1
Cc1ccc(OCC2CN(C(=O)c3cccc(Br)n3)CCO2)cc1 (stereo not drawn) | 3 | 6
Cc1ccc(-c2csc3nc(CN(Cc4ccco4)CC(O)COCc4ccco4)[nH]c(=O)c23)cc1C (stereo not drawn) | -8 | -5
O=C(Nc1cccnc1)N1CCC(Cc2cccc(Oc3ccc(C(F)(F)F)cn3)c2)CC1 | 7 | 0
N#Cc1ccccc1-c1ccc(COc2coc(CN3CCN(C(=O)CCc4ccccc4)CC3)cc2=O)cc1 | 2 | -1
O=C(COc1ccc2c(c1)OCO2)NCCCn1nc(-c2ccccc2)ccc1=O | -2 | -5
O=C(Cc1cc2ccccc2[nH]1)N/N=C\C1CC=CCC1 (stereo not drawn) | -11 | -19
Cc1cn2c3c(=O)n(C)c(=O)n(C)c3nc2n1-c1cccc(OCCN2CCOCC2)c1 | 1 | 11
CC(C)c1cc(C(=O)N2CCC(n3nccc3NC(=O)CCOc3ccccc3)CC2)on1 | 1 | 0
CCOc1cc(N(CC)CC)ccc1C=C1C(=O)NC(=O)NC1=O | 16 | 16
O=C(CCc1ccccc1)Nc1ccnn1C1CCN(C(=O)c2cccs2)CC1 | 13 | 1
COc1ccccc1C(=O)N1CCN(Cc2cnc(-c3ccco3)nc2)CC1 | 2 | 0
Cc1oc(-c2ccc(Cl)cc2)cc1C(=O)N1CCN(c2nccc(-c3ccco3)n2)CC1 | -5 | -10

The final 2 entries of the part above come first, to join the parts.
SMILES | NPYLR7 agonist | NPYLR7 agonist max-min
COc1ccccc1C(=O)N1CCN(Cc2cnc(-c3ccco3)nc2)CC1 | 2 | 0
Cc1oc(-c2ccc(Cl)cc2)cc1C(=O)N1CCN(c2nccc(-c3ccco3)n2)CC1 | -5 | -10
COc1ccc(-c2nc(N3CCN(C(=O)Nc4ccc(C(F)(F)F)cc4)CC3)c3ccccc3n2)cc1 | 18 | 17
CCCCNS(=O)(=O)Cc1ccc(C#N)cc1 | 6 | 3
O=C(NC(c1ccc(F)cc1)c1ccc(SCc2ccccc2)cc1)c1cccnc1Oc1ccccc1 (stereo not drawn) | -10 | -13
O=C1c2ccccc2NC2(Cc3ccccc3C2)N1CC(F)(F)F | 0 | -1
Cc1cc(C)c(S(=O)(=O)N(CC(=O)N2CCc3sccc3C2c2ccc(Cl)cc2Cl)Cc2ccc(F)cc2)c(C)c1 (stereo not drawn) | 26 | 21
C=CCN(C(=O)c1ccc([N+](=O)[O-])cc1Cl)C1CCCC1 | -4 | -8
O=C(Nc1ccc2c(c1)Cc1ccccc1-2)C1CCCO1 (stereo not drawn) | -5 | -5
CN(Cc1cccc2cnccc12)C(=O)c1ccccc1C1CCNC1 (stereo not drawn) | 8 | 5
Cc1nc2ccccn2c(=O)c1NC(=O)Nc1ccc2c(c1)OCCO2 | 11 | 8
CCCCCCCOc1ccc(NC(=O)C2OC3OC(C)(C)OC3C3OC(C)(C)OC23)cc1 (stereo not drawn) | -5 | -8
COc1ccc(C2=C(C(C)=O)Sc3nnc(-c4ccc(OC)cc4)n3N2C(C)=O)cc1 | 4 | 2
Fc1ccc(Cn2cccc2CN(Cc2ccccc2F)C2CCCCC2)cc1 | -4 | -4
COCCn1cc(NC(=O)N2CCOCC2)c2ccccc21 | 13 | 3
COc1cccc(CSc2nnc(C(C)NC(=O)/C=C/c3ccccc3)n2-c2cc(Cl)ccc2Cl)c1 (stereo not drawn) | 5 | 5
COCCOc1nc(-c2ccco2)n(-c2cccc(NC(=O)Nc3ccc(OC)cc3)c2)n1 | -7 | 2
O=[N+]([O-])c1ccc(-c2cc(-c3cccc([N+](=O)[O-])c3)n[nH]2)cc1 | -11 | -14
Cc1cccn2c(=O)nc(SCc3ccc(Cl)cc3)nc12 | 5 | 1
Cc1ccc(-c2nc3ccc(C)cn3c2N)c(C)c1 | 5 | 5
CC(=O)NNc1nc2ccccc2s1 | -4 | -6
COc1cc(CN2CCCn3cccc3C2c2ccc(C(F)(F)F)cc2)cc(OC)c1 (stereo not drawn) | -4 | 0
C=CCn1c(SC(C)C(N)=O)nnc1-c1ccc(Cl)cc1Cl (stereo not drawn) | -6 | 14
COc1ccccc1-c1cc(C(=O)NC2CCCCC2)nc2cc(-c3ccccc3)nn12 | 16 | 31
Cc1cc(C(=O)Nc2cccn(Cc3ccc(F)cc3)c2=O)on1 | -26 | -23
CCCCc1nc(N2CCN(C(=O)c3ccco3)CC2)c2c(-c3ccc4ccccc4c3)noc2n1 | 21 | 9
O=C(Nc1ccccc1)C1=NN(C2CCS(=O)(=O)C2)C(=O)CC1 (stereo not drawn) | 10 | 4
O=C(Cn1cc(C(F)(F)F)cc(Cl)c1=O)NC(=O)NC1CCCCC1 | -4 | -9
CCCCNC(=O)c1cn(C)cc2c(=O)n(-c3ccccc3)nc1-2 | 9 | 6
Cc1cc(C)cc(N2C(=O)CSC2c2ccc(NC(=O)c3ccc(F)cc3)cc2)c1 (stereo not drawn) | 1 | 15
COC(=O)c1ccc(Cl)cc1NS(=O)(=O)c1ccc(OC)c(OC)c1 | 18 | 9
Cn1ncc2c(Nc3cccc(Cl)c3)nc(NCCN3CCOCC3)nc21 | 1 | -2
CCOC(=O)C1(CC2CC2)CCN(C(=O)c2cc(-c3ccc(C)s3)[nH]n2)CC1 | 14 | 7
CCS(=O)(=O)c1cnccc1C(=O)OC | -8 | -10
O=C1/C(=C/c2ccc(-c3ccc(Cl)c(Cl)c3)o2)C=C(c2ccccc2)N1c1ccccc1Cl | 0 | 6
CN1CCN(n2c3c(c(SCC(=O)NCc4ccccc4)nc2=O)CCCC3)CC1 | 0 | -8
O=C(C1=CCCC1)N1CCC(CO)(CCOc2ccccc2)CC1 | 11 | 4
COCCNCc1ccc(OS(=O)(=O)c2ccc(NC(C)=O)cc2)cc1 | 34 | 35
Cc1nc(SCc2nc3ccccc3o2)c2c(C)c(C)sc2n1 | 4 | 13
CCCCC(=O)N1CCc2c([nH]c3ccc(OC)cc23)C1c1ccc(C(F)(F)F)cc1 (stereo not drawn) | 4 | -8
Cc1nc2c(-c3ccccc3)c(C)nn2c(NCC2CCCO2)c1Cc1ccccc1 (stereo not drawn) | -2 | -5
Cc1cccc(-n2nnc3c(=O)n(CC(=O)N4CCN(c5ccccc5)CC4)cnc32)c1 | 2 | -5
CCc1ccc(N(Cc2nnc3n2CCCCC3)C(=O)Nc2ccccc2OC)cc1 | 2 | 1
CC(C)N(CC(=O)Nc1ccc(S(C)(=O)=O)cc1)c1ccc(Cl)c(Cl)c1 | -12 | -11
Cc1nn(-c2ccc(C(C)C)cc2)c(C)c1CCC(=O)NCCCn1ccnc1 | -19 | -27
Cc1cc(C(=O)CN2C(=O)C(=O)N(CCC3=CCCCC3)C2=O)c(C)n1C1CC1 | 2 | 0
COc1ccccc1/C=C/C=C1\N=C(c2ccc(Cl)cc2Cl)OC1=O | 0 | -4
CCC(CNC(=O)Nc1ncn(CC)n1)N1CCOCC1 (stereo not drawn) | 2 | 0
O=C(NCC1CCC1)c1ccc2c(=O)n3c(nc2c1)CCCCCC3 | 0 | 0
O=C(CCC1CCN(C(=O)NC2CCCCC2)CC1)Nc1ccccc1 | 17 | 3
CC(C)(C)NC(=O)CSc1nnc(NC2CCCCC2)s1 | 22 | 12
Cc1cc(C)n(-c2cccc(C(=O)N(C)Cc3nc(C4CC4)no3)c2)n1 | -2 | -3
New compounds follow
SMILES | NPYLR7 agonist | NPYLR7 agonist max-min
CCc1ccccc1-n1c(=O)c2ccccc2n(C(CC)C(=O)Nc2ccc(OC)c(OC)c2)c1=O (stereo not drawn) | -2 | 4
CC1SC(c2cccc(F)c2)N(CCO)C1=O (stereo not drawn) | -1 | -4
CC(C)c1cc(NCc2cccnc2N2CCCC(O)C2)nc(C(F)(F)F)n1 (stereo not drawn) | 4 | 2
COc1ccc(/C=N\Nc2nc(-c3ccccc3)c3cc(C)ccc3n2)cc1OC | -6 | -11
COc1cccc(C(=O)N2CCSC23C(=O)N(Cc2ccccc2Cl)c2ccc(F)cc23)c1 (stereo not drawn) | 11 | 12
Cc1ccc(-n2ncc3c(=O)n(NC(=O)C(C)Oc4ccccc4)cnc32)cc1C (stereo not drawn) | 3 | 1
CCC(C)NS(=O)(=O)c1ccc(C(=O)N(CC)C2CCN(C(C)c3ccccc3)C2)cc1 (stereo not drawn) | 2 | 3
CCOC(=O)C1CCN(C(=O)COc2ccc3ccccc3c2)CC1 | -3 | -3
COc1ccc(CNc2ccc(S(=O)(=O)Cc3ccc(Cl)cc3)nn2)cc1 | 1 | -3
OC(c1ccc(-c2ccccc2)cc1)c1ncc(-c2cccc(F)c2)[nH]1 (stereo not drawn) | 2 | 1
CCC(CC(C)CO)Nc1ncnc2ccc(F)cc12 (stereo not drawn) | 0 | -3
COc1ccc(CN(CCN(C)C)C(=O)CC(C)C)cc1OS(=O)(=O)C(C)C | 11 | 22
CC1CN(C)CCN1C(=O)Nc1cccnc1-n1cccn1 (stereo not drawn) | 1 | 0
Cc1ccc(Nc2ncccc2S(N)(=O)=O)cc1 | -7 | -10
Cn1nc(-c2cc(N)nc3[nH]ccc23)nc1N1CCCCC1 | -3 | -6
CC(C)Cc1cc(CN2CCCCC2C(=O)Nc2ccc(-n3cccn3)cc2)[nH]n1 (stereo not drawn) | 19 | 4
CN1CCC(NCCC(C)(Cc2ccccc2)c2ccccc2)CC1 (stereo not drawn) | -2 | -6
CN(C)CC1(O)CCN(C(=O)Cc2cc3c(cc2Cl)OCCO3)C1 (stereo not drawn) | 11 | 8
O=C(c1cc2c(nc1Cl)CCC2)N1CCCC(Nc2ccc(F)cc2)C1 (stereo not drawn) | 0 | -2
Cn1c(=O)n(C)c2cc(CNc3nc(CCN)nc4ccccc34)ccc21 | 3 | 4

An excerpt of these results, tab-delimited.
smiles	NPYLR7 agonist	NPYLR7 agonist max-min
CN(C)CC1(O)CCN(C(=O)Cc2cc3c(cc2Cl)OCCO3)C1 (stereo not drawn)	11	8
CC1CN(C)CCN1C(=O)Nc1cccnc1-n1cccn1 (stereo not drawn)	1	0
Cc1ccc(Nc2ncccc2S(N)(=O)=O)cc1	-7	-10
Cn1c(=O)n(C)c2cc(CNc3nc(CCN)nc4ccccc34)ccc21	3	4
Cn1nc(-c2cc(N)nc3[nH]ccc23)nc1N1CCCCC1	-3	-6
O=C(c1cc2c(nc1Cl)CCC2)N1CCCC(Nc2ccc(F)cc2)C1 (stereo not drawn)	0	-2

Other structures
SMILES | NPYLR7 agonist | NPYLR7 agonist max-min
COCCn1c(C(=O)NCc2ccco2)cc2c(=O)n(C)c(=O)n(C)c21 | 1 | 0
Cc1cccc(N=Nc2c(O)n(Cc3ccccc3Cl)c3ccc(Br)cc23)c1 | -1 | -7
COc1cc(OC)cc(-c2onc(C)c2C(=O)NCCSC)c1 | -12 | -14
CCOC(=O)N1CCN(C(=O)CSc2ccc(-c3ccccc3)nn2)CC1 | -4 | -5
CN(Cc1cc(-c2ccncc2)no1)c1nccc(CCC(F)(F)F)n1 | 2 | -1
CC(C)c1ccc(-n2ncc(C(=O)NNc3cccc(Cl)c3)c2N)cc1 | 0 | 3
O=C(NC(c1ccccc1)c1ccc(Br)cc1F)c1cnccn1 (stereo not drawn) | 10 | 4
N#CC(C#N)=C/C(Br)=C\C(C#N)C#N | 9 | 13
CCCCc1ccc(NC(=O)CC2CSc3nc4[nH]ncc4c(=O)n32)cc1 (stereo not drawn) | -1 | 24
COc1ccccc1C(=O)N(Cc1nnc2c3ccccc3c(C)nn12)c1ccccc1 | -11 | -24
